MCF10A rerep: DNA re-replication induction in MCF 10a cells | Potency, µM (titrated, usually from 46.1 µM), without a hit: top-dose activity, positive = re-replication, hits mostly activators | MCF 10A DNA re-replication, Hoechst nuclear intensity, 48 h | actives 2.9% (n = 350,000); further: % of control where 0% means no effect; nearly all actives have a fitted effect of over 50% in size
SW480 rerep: DNA re-replication induction in SW480 cells. SW480 DNA re-replication, Hoechst DNA content imaging, 48 h. actives 1.8% (n = 340,000). Potency, µM (series often up to 46.1 µM), for inactives: at the highest dose re-replication activation, hits mostly activators; further: % of control where 0% means no effect; nearly all actives have a fitted effect of over 55% in size
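First, 250 cells per well were seeded. Next, compound or vehicle (23 nL) was pinned in, plates sat 48 hr at 37 C. Finally Hoechst was added for 40 min before fluorescence scanning.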
KB-V1 MDR tox: kills drug-selected multidrug resistant KB-V1 cells | KB-V1 MDR cells viability, CellTiter-Glo, 72 h | Potency, µM (doses to about 46.1 µM), for the others: at the highest dose activity change, negative = cytotoxicity, most hits filed as cytotoxic | actives 3.4% (n = 400,000) | AID 1347076; further: on the % scale 0 is the no-effect control and ±100 the full control effect; nearly all actives have a fitted effect of over 60% in size
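Luminescent ATP read-out (CellTiter-Glo, 10 min) measures survival of drug-selected KB-V1 MDR cells after 72 h, 37 degrees C compound exposure. Medium: phenol-red-free DMEM, 10% FBS. Values from fitted concentration-response curves.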
HT1080NT lethal: kills 2HG-producing HT-1080-NT fibrosarcoma cells; HT-1080-NT fibrosarcoma viability, CellTiter-Glo ATP luminescence, 48 h; Potency, µM (series often up to 46.1 µM), inactives show at the top dose activity, negative = less viability, hits mostly cytotoxic; actives 1.6% (n = 360,000); AID 686970;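 further: NT is the 2HG producing partner of a matched IDH1 knockdown line; 0% = DMSO-treated cells and -100% = media-only wells without cells; nearly all actives have a fitted effect of over 55% in size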
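750 cells/well, RPMI + 5% FBS; 2 h settle, compound pin-transfer, 48 h at 37 degrees C. CellTiter-Glo 10 min RT, luminescence. Normalized to DMSO and media-only wells.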
KB-3-1 cytotox: kills parental KB-3-1 adenocarcinoma cells | KB-3-1 viability, CellTiter-Glo ATP luminescence, 72 h | Potency, µM (top dose mostly 46.1 µM), inactives show at the top dose activity change, negative = cytotoxic, actives largely listed as cytotoxic | actives 1.4% (n = 400,000); further: on the % scale 0 is the no-effect control and ±100 the full control effect; nearly all actives have a fitted effect of over 60% in size
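KB-3-1 cells, DMEM (no phenol red) + 10% FBS; compound by pin transfer, 72 h, 37 °C. Readout: CellTiter-Glo luminescence after 10 min. Data normalized, curve-fitted.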
Starred values were filed as active, the others as inactive; ? = inconclusive; & = joins results of further samples; [ ] = another dose, or the depositor's remark. The call rests on the fitted dose curve; in most records, active means well fitted curve in the direction sought with a large enough effect; inconclusive means small, poorly fitted or top-dose-only effect, or another doubt; inactive means no such curve, though single readings can be large; an effect the other way counts as inactive or inconclusive. Potency means the concentration at half of the fitted maximal effect. Not all compounds are listed; the hit share may differ from the screen's.

1) Cc1ncc(CO)c(CO)c1O
2) Cc1ccc(-n2c(C)cc(C3=NNC(=NC4CC4)SC3)c2C)cc1C
3) Nc1nc(-c2ccccc2)cs1
4) O=C(Nc1ccc2oc(=O)ccc2c1)c1cccnc1Cl
5) CS(=O)(=O)OCCCCOS(C)(=O)=O
6) c1ccc2c(c1)ccc1ncccc12
7) CCN(CC)CCNC(=O)c1ccc(N)cc1
8) Nc1ccc(S(=O)(=O)Nc2nccs2)cc1
Screen / compound no.	1	2	3	4	5	6	7	8
MCF10A rerep	?	?	-13.3%	-7.2%	-0.2%&-0.2%	-1.2%	-2.0%	1.5%
SW480 rerep	-5.6%	-4.1%	19.5%	-5.5%	-80.3%&-7.0%[inhibitor]	-2.4%	-2.1%	-0.4%
KB-V1 MDR tox	-40.6%	-18.4%	2.3%	13.6%	-1.3%	13.8%	14.5%	17.5%
HT1080NT lethal	29.4%	?	0.2%	10.2%	-2.9%	-7.0%	44.5%	12.3%
KB-3-1 cytotox	?	?	3.0%	2.9%	-0.2%	13.6%	0.0%	-23.1%

A draw from above in order of formula weight, smallest number first:
1) Cc1ncc(CO)c(CO)c1O
7) CCN(CC)CCNC(=O)c1ccc(N)cc1
4) O=C(Nc1ccc2oc(=O)ccc2c1)c1cccnc1Cl
2) Cc1ccc(-n2c(C)cc(C3=NNC(=NC4CC4)SC3)c2C)cc1C
Screen / compound no.	1	7	4	2
MCF10A rerep	?	-2.0%	-7.2%	?
SW480 rerep	-5.6%	-2.1%	-5.5%	-4.1%
KB-V1 MDR tox	-40.6%	14.5%	13.6%	-18.4%
HT1080NT lethal	29.4%	44.5%	10.2%	?
KB-3-1 cytotox	?	0.0%	2.9%	?

3 entries drawn at random from the list so far:
2) Cc1ccc(-n2c(C)cc(C3=NNC(=NC4CC4)SC3)c2C)cc1C
3) Nc1nc(-c2ccccc2)cs1
1) Cc1ncc(CO)c(CO)c1O
Screen / compound no.	2	3	1
MCF10A rerep	?	-13.3%	?
SW480 rerep	-4.1%	19.5%	-5.6%
KB-V1 MDR tox	-18.4%	2.3%	-40.6%
HT1080NT lethal	?	0.2%	29.4%
KB-3-1 cytotox	?	3.0%	?

Compound activity from PubChem BioAssay.
